# Bioassay records deposited in PubChem by Broad Institute.
# PD-1 reverse act: reversal of PD-1 mediated T-cell inhibition | activation, % (concentration not given with the values) | AID 2316 | 29,000 tested, under 10 active | primary human CD4 T cells, PD-L1 beads, CellTiter-Glo 96 h;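 active = replicate mean of 50% or more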;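 note: 0% = median vehicle wells and 100% = positive control; 100 nL library stock added to about 50 µL; numbers are from one replicate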
# MITF inhib: inhibitors of MITF | 37,000 tested, 0.28% active | inhibition, % (test concentration not listed) | TRPM1 promoter luciferase, luminescence, 24 h | AID 2240;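 active = most replicates at 85% or more, or half of them and the mean; inconclusive = half reach 85% but not the mean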;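 note: human melanocyte line stably carrying TRPM1 promoter luciferase reporter; 0% = vehicle wells and 100% = a positive control; the first replicate is given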
# YB-1 expr inh: YB-1 expression inhibition | delta delta Cp (YB-1 minus CDIP) (concentration not given with the values) | AID 434959 | 30,000 tested, 0.37% active | U2OS, qRT-PCR YB-1 vs CDIP delta delta Cp, 16 h; hits give high values; zero = DMSO, each unit about twofold;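 active = delta delta Cp rounded down to an integer at or above 3, about 3 SD of DMSO wells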;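 note: higher means less YB-1 transcript or more CDIP transcript relative to DMSO; stock transfer was 100 nL into about 100 µL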
# Shh pathway inh: Sonic Hedgehog pathway inhibition | Shh-LIGHT2 Gli-luciferase reporter, 30 h | inhibition, % (no concentration beside the values) | 22,000 tested, 2.1% active | AID 2313;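 active = replicate mean of 65% or more; inconclusive = mean lower but half the replicates past it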;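 note: pathway switched on by Shh-conditioned medium diluted 1 in 25 in low serum; 100 nL library stock added to about 40 µL; 0% = median of neutral wells and 100% = positive control level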
# The depositor's hits bear a star; ? = inconclusive; nt = no result given. Only part of the results is shown (hit frequency here may not be typical).
molecule,PD-1 reverse act,MITF inhib,YB-1 expr inh,Shh pathway inh
C[C@@H]1CN([C@H](C)CO)C(=O)Cc2cc(NC(=O)C3CCCCC3)ccc2O[C@H]1CN(C)C(=O)Nc1ccc(C(F)(F)F)cc1,-0.3,-1,-0.12,nt
COc1ccc(NC(=O)Nc2ccc3c(c2)C(=O)N([C@@H](C)CO)C[C@@H](C)[C@H](CN(C)C(=O)Nc2c(C)noc2C)O3)cc1,nt,-3,0.083,2
COc1ccc(NC(=O)Nc2cccc3c2O[C@@H](CN(C)S(=O)(=O)c2ccc(OC)cc2)[C@@H](C)CN([C@@H](C)CO)C3=O)cc1,-0.6,-26,-0.2,-13
C[C@H]1CN([C@@H](C)CO)C(=O)Cc2cc(NS(=O)(=O)c3ccc(F)cc3)ccc2O[C@@H]1CN(C)S(=O)(=O)c1cccs1,0.1,-18,-0.23,?
CNC[C@@H]1Oc2ccc(N)cc2C(=O)N([C@@H](C)CO)C[C@H]1C,-0.1,10,-0.2,-11
CNC[C@@H]1Oc2ccc(N(C)C)cc2CC(=O)N([C@H](C)CO)C[C@@H]1C,1.7,-2,0.23,-10
C[C@H]1CN([C@@H](C)CO)C(=O)Cc2cc(NS(=O)(=O)c3cccs3)ccc2O[C@@H]1CN(C)CC1CCCCC1,-0.3,4,-0.1,16
C[C@H](CO)N1C[C@H](C)[C@@H](CN(C)C(=O)Nc2cccc3ccccc23)Oc2ccc(NC(=O)C3CC3)cc2C1=O,0.6,12,-0.37,-7
C[C@H](CO)N1C[C@H](C)[C@H](CN(C)Cc2ccncc2)Oc2ccc(NC(=O)Cc3cn(C)c4ccccc34)cc2CC1=O,0.6,-9,0.37,18
C[C@@H]1CN([C@H](C)CO)C(=O)c2cc(NC(=O)Nc3ccc(C(F)(F)F)cc3)ccc2O[C@H]1CN(C)S(=O)(=O)c1ccccc1,3.3,-29,-0.42,-9
NC(N)=NC(N)=Nc1cccc(Cl)c1,5.3,-3,0.55,-77
COc1ccc(S(=O)(=O)Nc2ccc3c(c2)C(=O)N([C@H](C)CO)C[C@@H](C)[C@@H](CN(C)CC2CCCCC2)O3)cc1,nt,-8,0.27,5
CC(C)NC(=O)Nc1cccc2c1O[C@@H](CN(C)CC1CCCCC1)[C@H](C)CN([C@@H](C)CO)C2=O,0.0,2,0.28,-3
C[C@@H]1CN([C@H](C)CO)C(=O)c2cc(NC(=O)Nc3ccccc3)ccc2O[C@@H]1CN(C)Cc1ccc(Oc2ccccc2)cc1,-1.3,-17,0.31,nt
C[C@@H]1CN([C@@H](C)CO)C(=O)c2cccc(N(C)C)c2O[C@@H]1CN(C)S(=O)(=O)c1ccc(Cl)cc1,nt,6,-0.27,6
Cc1noc(C)c1S(=O)(=O)N(C)C[C@@H]1Oc2ccc(NC(=O)NC3CCCCC3)cc2CC(=O)N([C@@H](C)CO)C[C@@H]1C,0.2,-2,0.16,nt
CCOc1ccc(Cc2nccc3cc(OCC)c(OCC)cc23)cc1OCC,-2.9,24,1.1,6
C=CCn1c2ccccc2n2nc(CCC(=O)O)c(=O)nc12,3.0,-3,nt,nt
C[C@H]1CN([C@@H](C)CO)C(=O)Cc2cc(NC(=O)c3ccncc3)ccc2O[C@@H]1CN(C)C(=O)NC1CCCCC1,nt,-31,0.61,32
Cc1ccc(S(=O)(=O)N(C)C[C@@H]2Oc3ccc(NC(=O)C4CC4)cc3C(=O)N([C@@H](C)CO)C[C@@H]2C)cc1,0.9,1,0.011,3
C[C@@H]1CN([C@H](C)CO)C(=O)c2cccc(NC(=O)Nc3ccc4c(c3)OCO4)c2O[C@H]1CN(C)S(=O)(=O)c1cccs1,-1.7,7,-0.4,29
CNC[C@@H]1Oc2c(NS(=O)(=O)c3cn(C)cn3)cccc2C(=O)N([C@@H](C)CO)C[C@@H]1C,1.5,-6,-0.32,-5
COc1ccc(C)cc1S(=O)(=O)N(C)CC(=O)Nc1cccc(F)c1,1.0,-5,nt,nt
C[C@H]1CN([C@@H](C)CO)C(=O)c2cc(NC(=O)c3ccncc3)ccc2O[C@H]1CN(C)Cc1ccc(Cl)c(Cl)c1,-2.5,10,-0.42,-35
C[C@@H]1CN([C@@H](C)CO)C(=O)c2cc(NC(=O)Cc3cn(C)c4ccccc34)ccc2O[C@H]1CN(C)Cc1ccccc1,-1.4,19,0.5,nt
C[C@H]1CN([C@@H](C)CO)C(=O)c2cccc(NC(=O)C3CC3)c2O[C@@H]1CN(C)Cc1ccc(Oc2ccccc2)cc1,nt,17,0.0039,?
C[C@H]1CN([C@@H](C)CO)C(=O)Cc2cc(NC(=O)C3CCCCC3)ccc2O[C@@H]1CN(C)S(=O)(=O)c1cn(C)cn1,nt,-4,-0.056,-25
COc1ccc(S(=O)(=O)Nc2ccc3c(c2)C(=O)N([C@H](C)CO)C[C@H](C)[C@@H](CN(C)S(=O)(=O)c2c(C)noc2C)OCCCC[C@@H](C)O3)cc1,-0.9,7,0.3,-10
C[C@H]1CN([C@@H](C)CO)C(=O)c2cccc(NS(=O)(=O)c3ccc(Cl)cc3)c2O[C@@H]1CN(C)Cc1ccccc1,nt,-2,-0.13,0
COc1cccc(-c2cc(C(F)(F)F)n3nc(C(=O)Nc4c(C#N)cnn4C)cc3n2)c1,-1.3,2,nt,nt
C[C@@H]1CN([C@H](C)CO)C(=O)Cc2cc(NS(C)(=O)=O)ccc2O[C@@H]1CN(C)CC1CCCCC1,1.3,-3,-0.084,11
C[C@@H]1CN([C@@H](C)CO)C(=O)c2cc(NC(=O)CCCN(C)C)ccc2O[C@@H]1CN(C)S(=O)(=O)c1ccc(F)cc1,1.0,8,-0.3,2
CNC[C@H]1Oc2c(NC(=O)c3nc4ccccc4s3)cccc2C(=O)N([C@@H](C)CO)C[C@@H]1C,0.9,5,-0.54,20
CCCN(CCC)S(=O)(=O)c1ccc(C(=O)O)cc1,3.4,9,0.56,-34
C[C@H]1CN([C@@H](C)CO)C(=O)Cc2cc(NC(=O)CCC(F)(F)F)ccc2O[C@@H]1CN(C)Cc1ccc(C(=O)Nc2ccccc2N)cc1,-0.2,5,-0.088,nt
Cc1ccc(S(=O)(=O)Nc2ccc(C(=O)Nc3cccc(N(C)S(C)(=O)=O)c3)cc2)cc1,-0.9,-2,nt,nt
Cc1nn2c(-c3cccc(NC(=O)CN4CCCCC4)c3)nnc2c2ccccc12,1.4,-38,nt,nt
Cc1nc(SCC(=O)Nc2ccnc3ccccc23)n[nH]1,-1.1,23,nt,nt
Cc1ccc(-n2c(SCC(=O)N(C)c3ccccc3)nc3nc4c(cc3c2=O)COC(C)(C)C4)cc1,-1.5,-22,nt,nt
CC(=O)c1cccc(NC(=O)CCN2C(=O)C3C4CCC(C4)C3C2=O)c1 (stereo not drawn),3.6,4,nt,nt
COc1ccc(CN(C)C[C@@H]2Oc3c(NC(=O)C4CCCCC4)cccc3C(=O)N([C@H](C)CO)C[C@@H]2C)cc1,0.7,0,0.13,-32
CCN(CC)S(=O)(=O)c1cccc(C(=O)NN)c1,0.8,-3,-0.25,-40
C[C@@H]1CN([C@H](C)CO)C(=O)c2cccc(NC(=O)c3ccncc3)c2O[C@@H]1CN(C)S(=O)(=O)c1ccccc1,nt,-48,-0.033,-59
C[C@H]1CN([C@@H](C)CO)C(=O)Cc2cc(NS(=O)(=O)c3cccs3)ccc2O[C@@H]1CN(C)S(=O)(=O)c1cn(C)cn1,2.1,-8,-0.3,-12
CC(C)(C)C1CCC2(CC1)C(C#N)C2(C#N)C(=O)c1ccccc1 (stereo not drawn),-5.6,85*,0.058,?
C[C@H](CO)N1C[C@H](C)[C@@H](CN(C)Cc2ccc(C(=O)Nc3ccccc3N)cc2)Oc2c(NC(=O)Nc3ccc(F)cc3)cccc2C1=O,-0.8,-19,0.064,nt
COc1ccc(CN(C)C[C@@H]2Oc3c(NC(=O)c4cnccn4)cccc3C(=O)N([C@H](C)CO)C[C@H]2C)cc1,nt,0,-0.11,-14
COc1ccccc1CC(=O)Nc1ccccc1C(=O)NC(C)(C)C,0.8,-5,nt,nt
O=C(CCNc1ccc2c(c1)oc1ccccc12)c1ccc([N+](=O)[O-])cc1,-5.5,-51,nt,nt
C[C@@H]1CN([C@@H](C)CO)C(=O)c2cc(NC(=O)CCCCCC(=O)Nc3ccccc3N)ccc2O[C@@H]1CN(C)S(=O)(=O)c1ccc(Cl)cc1,2.3,13,0.25,nt
CCc1cc(=O)oc2cc(OCc3cc(C(=O)OC)oc3C)ccc12,-1.2,-43,nt,nt
O=C(/C=C/c1ccccc1)Oc1ccccc1,-4.1,8,0.3,nt
Cc1nnc(SCc2ccccc2C#N)n1-c1ccccc1,-0.5,-8,nt,nt
C[C@H]1CN([C@@H](C)CO)C(=O)c2cc(NC(=O)NC3CCCCC3)ccc2O[C@H]1CN(C)S(=O)(=O)c1ccc(Cl)cc1,1.2,-2,-0.21,nt
C[C@H](CO)N1C[C@H](C)[C@@H](CN(C)S(=O)(=O)c2ccccc2)Oc2c(NS(=O)(=O)c3cn(C)cn3)cccc2C1=O,3.2,-11,0.13,-17
C[C@@H]1CN([C@@H](C)CO)C(=O)c2cc(NC(=O)C3CC3)ccc2O[C@@H]1CN(C)CC1CCCCC1,0.6,-6,0.31,nt
N#CC1=C(N)N2CCSC2=NC1(C(F)(F)F)C(F)(F)F,-0.6,-3,-0.31,-1
Cc1c(CC(=O)O)c(=O)oc2cc(OCC(=O)O)ccc12,1.6,-14,nt,nt
Cc1ccnc(NC(=O)Cn2cnc3c2c(=O)n(C)c(=O)n3C)n1,-2.5,-19,nt,nt
C[C@@H]1CC(=O)C2=C(C1)C[C@@H](O)[C@@]1(O)C2C(=O)c2cccc(O)c2[C@@H]1O (stereo partly drawn),1.2,9,0.046,-12

# Other structures follow:
molecule,PD-1 reverse act,MITF inhib,YB-1 expr inh,Shh pathway inh
CCOc1ccc2nc(SCC(=O)Nc3c(C)cccc3C)[nH]c2c1,-2.6,55,nt,nt
Cc1ccc(S(=O)(=O)Nc2ccc3c(c2)C(=O)N([C@H](C)CO)C[C@H](C)[C@@H](CN(C)C(=O)Nc2ccc4c(c2)OCO4)OCCCC[C@@H](C)O3)cc1,0.5,12,0.17,-2
Cc1cc(C)c(NC(=O)CSc2nc3ccc(NC(=O)c4ccccc4C)cc3s2)c(C)c1,0.7,-2,nt,nt
Cc1ccc(-c2cc(C(=O)NCc3ccco3)no2)cc1,2.0,-85,nt,nt
C[C@@H]1CN([C@H](C)CO)C(=O)Cc2cc(NC(=O)CCCCCC(=O)Nc3ccccc3N)ccc2O[C@H]1CN(C)Cc1ccc2c(c1)OCO2,0.2,-16,-0.37,nt
CCOC(=O)c1cc2ccccc2nc1C,-0.1,-20,-0.32,-34
CSc1c(CC(=O)Nc2ccccc2)n(C)c2ccccc12,0.4,43,0.43,-46
C[C@@H]1CN([C@@H](C)CO)C(=O)c2cc(NC(=O)Cc3cn(C)c4ccccc34)ccc2O[C@@H]1CN(C)Cc1ccc2c(c1)OCO2,-2.2,20,0.17,nt
O=C1c2ccccc2-[n+]2ccc3c([nH]c4ccccc43)c21,-57,108*,-0.22,?
COc1ccc(NC(=O)CSC2CC(=O)N(c3cc(Cl)cc(Cl)c3)C2=O)cc1 (stereo not drawn),-0.8,-13,nt,nt
Cc1ccc(CN(CC(=O)O)S(=O)(=O)c2ccc(Br)cc2)cc1,1.7,-30,nt,nt
CNC(=S)N(Cc1ccncc1)C1CC(=O)N(c2ccc(OC)cc2)C1=O (stereo not drawn),-1.5,-14,nt,nt
CS(=O)(=O)N(CC(=O)Nc1ccc(Oc2ccccc2)cc1)c1ccc(F)c(Cl)c1,0.1,-6,nt,nt
CSc1nnc(-c2cc(OCC(F)(F)F)nc(OCC(F)(F)F)c2)n1Cc1ccco1,-14,21,-0.39,42
O=C(c1cccc(S(=O)(=O)NC2CCCCCC2)c1)N1CCCc2ccccc21,-3.4,22,-0.19,33
CC(C)NC(=O)N(C)C[C@@H]1Oc2ccc(NC(=O)CCN3CCOCC3)cc2C(=O)N([C@@H](C)CO)C[C@H]1C,nt,-6,-0.057,-2
CC(C)(C)C(=O)OCc1nc(-c2ccc(Cl)cc2)cs1,1.1,-30,-0.095,-15

# Some of the entries above in a different format:
# Values run as follows: PD-1 reverse act	MITF inhib	YB-1 expr inh	Shh pathway inh
CNC(=S)N(Cc1ccncc1)C1CC(=O)N(c2ccc(OC)cc2)C1=O (stereo not drawn)
 : -1.5	-14	nt	nt
CS(=O)(=O)N(CC(=O)Nc1ccc(Oc2ccccc2)cc1)c1ccc(F)c(Cl)c1
 : 0.1	-6	nt	nt
CSc1nnc(-c2cc(OCC(F)(F)F)nc(OCC(F)(F)F)c2)n1Cc1ccco1
 : -14	21	-0.39	42
